Hedgehog: Drosophila hedgehog isoform A inhibitors, primary screen, biochemical, plate reader, single concentration (AID 588832); Biochemical plate reader assay, Hedgehog inhibition; hits give high values; inhibition, % at 30.3 µM; 8,000 tested, under 10 active; in the data active means inhibition from about 57%;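 further: 0% = neutral control wells and 100% = positive control wells; cholesterol-driven self-cleavage of fly hedgehog protein by fluorescence polarization; read one hour after cholesterol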
The depositor's hits bear a star.

SMILES	Hedgehog
CCCn1c(C2CC(=O)N(c3cc(OC)ccc3OC)C2)nc2ccccc21 (stereo unspecified)	5
COc1cc(-c2cc(=O)c3ccccc3o2)ccc1O	9
Cc1ccc(C2CC(c3cccc(C)c3)n3ncnc3N2)cc1 (stereo unspecified)	13
CCN(CC)c1ccc(N)cc1	-2
COc1cccc(CNC(=O)c2ccc(C)c(NC3=NC4CS(=O)(=O)CC4S3)c2)c1 (stereo unspecified)	15
O=C(O)C(c1ccccc1)c1ccccc1	8
CCc1nc(SCC(=O)Nc2cccc(C(F)(F)F)c2)c2c(=O)n(C)c(=O)n(C)c2n1	24
COc1ccc(C2CC(c3ccc(Cl)c(Cl)c3)Nc3nc(N)nn32)cc1 (stereo unspecified)	13
CCOc1cccc(-c2nc(C(N)=O)c3[nH]c(=O)n(-c4cccc(Cl)c4)c3n2)c1O	3
CN(C)C(CNC(=O)c1cccs1)c1cccnc1 (stereo unspecified)	6
Cc1cc(C)cc(N(CC(=O)Nc2ccccc2)C2=NC3CS(=O)(=O)CC3S2)c1 (stereo unspecified)	3
CCCCn1c(CCNC(=O)CC)nc2ccccc21	2
COc1ccc(CCNC(=O)CCC(=O)N2CCOc3ccc(Cl)cc32)cc1OC	5
COc1ccc(-c2cc(CCCC(=O)NCc3ccccn3)no2)cc1	1
O=C(Cn1cc2c(n1)CCCCC2)NCc1ccccc1	8
Cn1c(=O)c(=O)n(C)c2cc(S(=O)(=O)N3CCCC3C(=O)Nc3ccc(F)cc3)ccc21 (stereo unspecified)	20
Cc1ccc(-n2nc(-c3ccc(N)cc3)cc2N)cc1	0
Cn1c(C(=O)N2CCCC2)cc2c(=O)n(C)c3ccccc3c21	9
Cc1nnc(Sc2nc3c(c(=O)[nH]c(=O)n3C)n2CCc2ccccc2)s1	5
O=S(=O)(NCc1csc(-c2ccccc2)n1)c1ccc(Cl)s1	6

Some of the entries so far, as a markdown table:
| smiles | Hedgehog |
| --- | --- |
| CCc1nc(SCC(=O)Nc2cccc(C(F)(F)F)c2)c2c(=O)n(C)c(=O)n(C)c2n1 | 24 |
| COc1ccc(C2CC(c3ccc(Cl)c(Cl)c3)Nc3nc(N)nn32)cc1 (stereo unspecified) | 13 |
| CCOc1cccc(-c2nc(C(N)=O)c3[nH]c(=O)n(-c4cccc(Cl)c4)c3n2)c1O | 3 |

The list goes on:
SMILES	Hedgehog
CN(C)S(=O)(=O)c1ccc(C(=O)OCCN=C2NS(=O)(=O)c3ccccc32)cc1	5
Cn1cccc1Cc1nnc(SCC(=O)Nc2ccc3c(c2)OCCO3)n1CCc1ccccc1	24
COc1ccc(NC(=O)C2CCCN(S(=O)(=O)c3cccc4cccnc34)C2)cc1 (stereo unspecified)	4
Cc1ccc2oc(=O)c3cnn(CC(=O)N(CCN(C)C)Cc4ccco4)c3c2c1	3
Cc1c(S(=O)(=O)N2CCN(C(c3ccccc3)c3ccccc3)CC2)c(=O)n(C)c(=O)n1C	5
COc1ccc(-n2nnc3c(=O)n(CC(=O)N4CCCCC4)cnc32)cc1	-4
COc1ccc(NS(=O)(=O)c2cc3c(cc2C)N(C(C)=O)CCO3)cc1	5
Cc1oc(-c2ccc(Cl)cc2)nc1CN1CCC(C(=O)N2CCN(Cc3ccccc3)CC2)CC1	20
COc1ccc(CCNC(=O)CS(=O)(=O)Cc2nc(-c3ccccc3Cl)oc2C)cc1OC	9
Cc1coc2cc3oc(=O)c(CCC(=O)NCCCN4CCCC4=O)c(C)c3cc12	3
Cc1oc(-c2cccc(Cl)c2)nc1CS(=O)(=O)CC(=O)NCCN1CCCC1	7
CC1CCCC(NC(=O)Cn2cc3c(n2)CCCCC3)C1C (stereo unspecified)	17
c1ccc2c(c1)[nH]c1ccccc12	2
COc1ccc(OC)c2c1sc(=NC(=O)c1cccc(N3C(=O)CCC3=O)c1)n2C	4
COc1cccc(N2CCN(S(=O)(=O)c3cc4c(cc3C)N(C)CCO4)CC2)c1	13
Cc1cc(C)cc(NC(=O)c2ccc(NC3=NC4CS(=O)(=O)CC4S3)cc2)c1 (stereo unspecified)	9
COc1cccc(CNC(=O)CCC(=O)n2ncc3cc(C)ccc32)c1OC	7
COCOc1ccc(C=O)c(OCOC)c1	3
O=C1c2oc3ccccc3c(=O)c2C(c2cccc(O)c2)N1CCCN1CCOCC1 (stereo unspecified)	11
O=C(Cn1cc2c(n1)CCCC2)N1CCc2ccccc21	17
COc1ccc(C(=O)NCc2nc3ccccc3[nH]2)cc1OC	-2
CCCc1nc(SC2CCCC2)c2c(=O)n(C)c(=O)n(C)c2n1	4
COc1ccc(CNC(=O)C2CCCN(S(=O)(=O)c3c(C)nn(C)c3C)C2)cc1 (stereo unspecified)	2
COc1ccc(N2CCN(CCCNS(=O)(=O)c3ccc4c(c3)oc(=O)n4C)CC2)cc1	10
c1cncc(-c2nc3ccccn3c2Nc2ccc3c(c2)OCCO3)c1	5
CCS(=O)(=O)NCCc1csc(-c2cccnc2)n1	0
CCc1ccc(C2CC(c3ccccc3)Nc3nc(N)nn32)cc1 (stereo unspecified)	17
COc1cccc2c(=O)n(CC(=O)N3CCC(C)CC3)ccc12	6
O=C(CCC(=O)N1CCOc2ccccc21)Nc1cc(F)ccc1F	20
COc1ccc(C)cc1NC(=O)c1cc(S(=O)(=O)N2CCOCC2)cn1C	4
CCOc1ccc(CCNC(=O)c2cccc(NC3=NC4CS(=O)(=O)CC4S3)c2)cc1 (stereo unspecified)	-4
O=C(NCCc1csc(-c2cccnc2)n1)c1cccs1	1
CCc1cccc(NC(=O)c2ccc(Cn3c(=O)[nH]c4ccsc4c3=O)cc2)c1	0
C=CC(C)(C)c1[nH]cnc1/C=C1\NC(=O)C(C(C)C)NC1=O (stereo unspecified)	5
Cc1ccc(-n2nnc3c(=O)n(CC(=O)NCc4ccco4)cnc32)cc1	7
CC1(C)CC(=O)c2c(O)cc(OCC(=O)N3CCN(c4ccccc4)CC3)cc2O1	7
CCC(C)[C@H](NC(=O)N1CC(=O)Nc2ccccc21)C(=O)N[C@H](Cc1ccccc1)C(=O)O (stereo partly specified)	7
COc1ccc(Cc2nc(-c3ccc(-n4cccc4)cc3)no2)cc1	17
CSc1cccc(NC(=O)c2ccc(NC3=NC4CS(=O)(=O)CC4S3)cc2)c1 (stereo unspecified)	8
C=C(C)C(O)Cc1c(OC)ccc(C(=O)/C=C/c2ccc(O)cc2)c1O (stereo unspecified)	10
CC(C)N1CCc2c(sc(NC(=O)C3CCCCC3)c2C(N)=O)C1	0
Cc1cccc(Cn2c(N(C)CCO)nc3c2c(=O)[nH]c(=O)n3C)c1	11
COc1ccc(/C=C2\Oc3cc(OCC(=O)N4CCC[C@H]4CO)ccc3C2=O)c(OC)c1	5
COc1ccc(CCNC(=O)c2cc(C(C)C)on2)cc1OC	8
Cc1ccccc1-c1nc(CS(=O)(=O)CC(=O)NCCCN2CCCC2)c(C)o1	7
CCN(CC)C(=O)C1CCN(S(=O)(=O)c2c(C)noc2/C=C/c2cccc(C)c2)CC1	29
C=CCSc1nc(N)c(NC(=O)c2ccco2)c(=O)[nH]1	7
O=C(Cn1cnc2c(nnn2-c2ccccc2)c1=O)N1CCOCC1	5
CCOc1ccc(Cn2nnc(C(=O)Nc3ccc(OC)cc3OC)c2N)cc1	-2
Cc1ccc(C2CC(c3ccco3)n3ncnc3N2)cc1 (stereo unspecified)	15
O=C1NC2CCc3nc4ccccc4c(=O)n3C2=Nc2ccccc21 (stereo unspecified)	7
COc1cccc(-c2nc(CS(=O)CC(=O)NC3CC3)c(C)o2)c1 (stereo unspecified)	7
COc1ccc(CNC(=O)COc2cc3c(c4oc(=O)cc(C)c24)CCC(C)(C)O3)cc1OC	5
Cc1ccc(C)c(NC(=O)CSc2nc(N)c(NC(=O)c3cccs3)c(=O)[nH]2)c1	11
CCN(CCNC(=O)Cn1c(=O)sc2ccccc21)c1ccccc1	17
Cc1nn(CC(=O)N2CCN(c3ccc(Cl)cc3)CC2)c(=O)c2cccn12	11
CCOC(=O)C1CCN(S(=O)(=O)c2cn(C)c(=O)n(C)c2=O)CC1	2
CC1Cn2c(nnc2-c2cccc(N)c2)S1 (stereo unspecified)	29
O=c1c2ccccc2nc2n1CCC2O (stereo unspecified)	5
CN1CCN(C(=O)CCS(=O)(=O)c2cc3c(cc2Cl)NC(=O)CO3)CC1	4

The results go on:
SMILES	Hedgehog
CCC(=O)Nc1nc2c(OC)ccc(C)c2s1	8
Cc1ccc(C(c2sc3ncnn3c2O)N2CCC(C)CC2)cc1 (stereo unspecified)	7
Cc1ccn2cc(CCNC(=O)Cc3cccs3)nc2c1	5
COc1ccc(-c2nc(CS(=O)CC(=O)NCc3ccco3)c(C)o2)cc1OC (stereo unspecified)	5
Cc1noc(/C=C/N(C)C)c1S(=O)(=O)N1CCCC(C(=O)NCc2cccs2)C1 (stereo unspecified)	3
O=C1CN(C(=O)N[C@@H](Cc2ccccc2)C(=O)N[C@H](Cc2ccccc2)C(=O)O)c2ccccc2N1	0
Cc1cc(Nc2ccc(Br)c(C)c2)n2nc(C)nc2n1	7
CCOC(=O)N1CCC(NC(=O)c2ccc3c(Cl)c4c(nc3c2)CCCC4)CC1	8
Cc1ccc(NC(=O)Cn2cc(S(=O)(=O)c3ccc(F)cc3)c(=O)c3cc(F)ccc32)cc1	0
COCCNS(=O)(=O)c1ccc(C2CNC(=O)C2)cc1 (stereo unspecified)	17
CCCOc1ccc(CNC(=O)C2CCN(c3nnc(N4CCCC4=O)s3)CC2)cc1	10
Cc1ccc(Cl)cc1N1CCN(C(=O)COc2ccc(S(=O)(=O)NC(C)C)cc2)CC1	7
CCCc1cc(C(=O)NC2CCCCC2)no1	7
CC(=O)c1oc2ccccc2c1NC(=O)CCCN1C(=O)c2ccccc2C1=O	2
CCCCCC(N)=O	-4
Cc1ccc(-c2nc(CS(=O)CC(=O)NCCCN3CC(C)CC(C)C3)c(C)o2)cc1 (stereo unspecified)	4
Cc1cccc(N2CC(c3nc4ccccc4n3C)CC2=O)c1C (stereo unspecified)	5
CCC/C(=N/NC(=O)c1nnn(-c2nonc2N)c1CN1CCCCC1)c1ccccc1	5
CC(=O)C1=C(O)C(=O)N(CC(=O)O)C1c1ccccc1Cl (stereo unspecified)	13
COc1ccc(CCNC(=O)Cc2ccc(OC)c(OC)c2)cc1OC	9

An excerpt of these results, with bars between the fields.
SMILES | Hedgehog
Cn1c(=O)c(=O)n(C)c2cc(S(=O)(=O)N3CCCC3C(=O)Nc3ccc(F)cc3)ccc21 (stereo unspecified) | 20
O=C(O)C(c1ccccc1)c1ccccc1 | 8
COc1ccc(NS(=O)(=O)c2cc3c(cc2C)N(C(C)=O)CCO3)cc1 | 5

Additional entries follow:
SMILES	Hedgehog
Cc1ccc(C)c(NC(=S)NC(C)C(c2cccs2)N2CCOCC2)c1 (stereo unspecified)	6
COc1ccc(S(=O)(=O)N(C)C2CCN(C)CC2)cc1	2
Cc1nc(CCNC(=O)Cc2ccc(Cl)cc2)cs1	6
COCCNC(=O)Cn1ncc2ccsc2c1=O	19
CC1(C)C=Cc2cc3ccc(=O)oc3cc2O1	4
CCOC(=O)c1c(NC(=O)C(C)Sc2c[nH]c3ccccc23)sc2c1CCC2 (stereo unspecified)	19
Oc1c(C(c2cccc(F)c2)N2CCN(Cc3ccccc3)CC2)sc2ncnn12 (stereo unspecified)	10
CN1CCc2c(sc(NC(=O)Cc3ccccc3)c2C(N)=O)C1	7
COc1c2c(c(CCC(=O)O)c3c1C=CC(C)(C)O3)OC(C)(C)C=C2	2
COc1ccc(C)cc1NC(=O)C1CCCN1S(=O)(=O)c1ccc2c(c1)CCC(=O)N2 (stereo unspecified)	1
NC(=O)c1cccc(S(=O)(=O)N2CC(c3ccccc3)CC2=O)c1 (stereo unspecified)	10
COc1cccc(NC(=O)n2nc(N)cc2-c2ccc(Cl)cc2)c1	33
CCC(Sc1nncn1C)C(=O)Nc1nnc(-c2ccc(Cl)cc2)s1 (stereo unspecified)	0
Cc1cc2cc(CNC(=O)c3ccc(Br)o3)ccc2n1C	4
CCC(OC(=O)C(CC(C)C)NC(=O)c1ccccc1)C(=O)Nc1nnc(C)s1 (stereo unspecified)	4
Cn1c(Cn2c(=O)sc3ccccc32)nnc1SCC(=O)Nc1cccc(Cl)c1	11
Cn1c(Cn2c(=O)sc3ccccc32)nnc1SCC(=O)Nc1cccc(F)c1	0
Cc1coc2cc3oc(=O)c(CCC(=O)NCCCn4ccnc4)c(C)c3cc12	3
COc1cccc(NC(=O)CN(C)S(=O)(=O)c2ccc3c(c2)CCC(=O)N3)c1	5
CC(NC(=O)Nc1ccccc1)C(c1cccs1)N1CCN(c2ccccc2)CC1 (stereo unspecified)	5

7 compounds already listed, ordered by length of the SMILES, largest number first:
SMILES	Hedgehog
COc1ccc(C)cc1NC(=O)C1CCCN1S(=O)(=O)c1ccc2c(c1)CCC(=O)N2 (stereo unspecified)	1
CCC(OC(=O)C(CC(C)C)NC(=O)c1ccccc1)C(=O)Nc1nnc(C)s1 (stereo unspecified)	4
CCOC(=O)c1c(NC(=O)C(C)Sc2c[nH]c3ccccc23)sc2c1CCC2 (stereo unspecified)	19
Oc1c(C(c2cccc(F)c2)N2CCN(Cc3ccccc3)CC2)sc2ncnn12 (stereo unspecified)	10
CC(NC(=O)Nc1ccccc1)C(c1cccs1)N1CCN(c2ccccc2)CC1 (stereo unspecified)	5
COc1ccc(S(=O)(=O)N(C)C2CCN(C)CC2)cc1	2
Cc1nc(CCNC(=O)Cc2ccc(Cl)cc2)cs1	6

Continuation.
SMILES	Hedgehog
CCOc1ccccc1N	5
Cc1nc2ccccc2c2oc(C(=O)N3CCN(C4CCCCC4)CC3)cc12	6
Cc1cc(Nc2ccc(C(C)C)cc2)n2ncnc2n1	7
CC(C)N1CCc2c(sc(NC(=O)c3ccc(S(=O)(=O)N4CCOCC4)cc3)c2C(N)=O)C1	4
O=C(O)CCSSCCC(=O)O	5
CC(C)C[C@H](NC(=O)[C@H](Cc1ccccc1)n1c(=O)[nH]c2ccccc2c1=O)C(=O)N1CCC[C@@H]1C(=O)O	0

By substructure, the entries above containing bromine (2)
SMILES	Hedgehog
Cc1cc(Nc2ccc(Br)c(C)c2)n2nc(C)nc2n1	7
Cc1cc2cc(CNC(=O)c3ccc(Br)o3)ccc2n1C	4

This is a subset. The share of hits here may be higher or lower than overall.
